NPYLR7 agonist – activates Aedes aegypti NPYLR7 receptor | HEK293T NPYLR7/Galpha15, GCaMP6s calcium fluorescence | activation, % at 10 µM | actives 0.15% (n = 270,000); in the data active means activation above about 40%;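 further: 0% = vehicle and 100% = reference agonist at the receptor; some compounds past the cut are filed as inactive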
NPYLR7 agonist max-min – further read-out of NPYLR7 agonist, marked with its call; activation, %; measured here: Max-Min RFU normalised activation; some inactives read as strong as hits;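 span of the calcium signal over five minutes; 0% = vehicle and 100% = native peptide agonist; compound fluorescence can raise it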
* hit, by the source's call; & = joins results of further samples. This is a subset. The share of hits here may be higher or lower than overall.

SMILES | NPYLR7 agonist | NPYLR7 agonist max-min
CCCCC(=O)N1CCN(c2ccc(Nc3ccncc3)nn2)CC1 | 7 | 1
O=C(Nc1cc([N+](=O)[O-])ccc1O)NC1CCS(=O)(=O)C1 (stereo not given) | -3 | -2
CCN(CC)S(=O)(=O)c1ccc(OC)c(N2CCN(S(=O)(=O)c3ccccc3Cl)CC2)c1 | 4 | 4
CC(NC(=O)C(C)(C)C)C(=O)Nc1ccc2nc(N(C)C)oc2c1 (stereo not given) | 1 | -2
CCOc1ccccc1NC(=O)Cc1csc(NC(=O)c2ccc[nH]c2=O)n1 | 2 | 5
O=C(c1cccc(C(F)(F)F)c1)N(CCN1CCOCC1)Cc1cc(Cl)ccc1OCc1nc(CO)cs1 | -6 | -5
CCN(CC)C(=Nc1ccccc1)Nc1ccccc1 | -9 | -8
Cc1ccc(C(O)=C2C(=O)C(=O)N(CCN3CCOCC3)C2c2ccc(C)o2)cc1 (stereo not given) | 6 | 6
CC1(C(=O)NCc2cccnc2)CCN1C(=O)CCc1cccs1 (stereo not given) | 7 | 6
CNc1ccccc1C(=O)NCC1CCN(Cc2cccnc2)C1 (stereo not given) | 0 | -3

Reprinted at random: 6 entries already listed, in no set order.
SMILES | NPYLR7 agonist | NPYLR7 agonist max-min
CNc1ccccc1C(=O)NCC1CCN(Cc2cccnc2)C1 (stereo not given) | 0 | -3
CCN(CC)S(=O)(=O)c1ccc(OC)c(N2CCN(S(=O)(=O)c3ccccc3Cl)CC2)c1 | 4 | 4
Cc1ccc(C(O)=C2C(=O)C(=O)N(CCN3CCOCC3)C2c2ccc(C)o2)cc1 (stereo not given) | 6 | 6
CC1(C(=O)NCc2cccnc2)CCN1C(=O)CCc1cccs1 (stereo not given) | 7 | 6
CCOc1ccccc1NC(=O)Cc1csc(NC(=O)c2ccc[nH]c2=O)n1 | 2 | 5
CCN(CC)C(=Nc1ccccc1)Nc1ccccc1 | -9 | -8

Next section
SMILES | NPYLR7 agonist | NPYLR7 agonist max-min
COc1ccnc(CN2CCCC(C(=O)c3cc(C)c(OC)c(C)c3)C2)c1OC (stereo not given) | 6 | 3
CN(C)CCN(C(=O)c1ccc([N+](=O)[O-])o1)c1nc2cc3c(cc2s1)OCO3 | -3 | -4
O=C(NCCc1cccc(Cl)c1)c1ccc[nH]c1=O | 7 | 2
Cc1cc2c3c(c1)C(C)CC(C)(C)N3C(=O)C2=O (stereo not given) | 4 | -3
CCOC(=O)[C@H]1C[C@@H]2O[C@H]1[C@H]1CN(Cc3ccnc(F)c3)C[C@H]1[C@@H]2O | 5 | 9
CC1=NN(c2ccc(C(=O)Nc3nc(C4CC4)cs3)cc2)CC1 | -5 | -7
CSc1ccccc1NC(=O)c1ccc(S(=O)(=O)N(Cc2ccco2)C2CC2)o1 | -9 | -11
COc1c(C)cc(C(=O)C2CCCN(Cc3c(C)nc4sccn34)C2)cc1C (stereo not given) | -4 | -7
Cc1[nH]ncc1CNC(COc1ccccc1)c1ccccc1 (stereo not given) | 5 | 5
CCOC(=O)N1CCN(C(c2ccc(OCC)cc2)C2Sc3nc(C)nn3C2=O)CC1 (stereo not given) | -9 | -11
CNC(=O)Cc1ccc(-c2ccc(F)c(CO)c2)cc1 | 3 | 3
Cc1c(Cl)c(=O)oc2cc(O)ccc12 | 7 | 12
Cc1nc(COc2cccc(/C=C/C(=O)NC3(C)CCS(=O)(=O)C3)c2)cs1 (stereo not given) | 1 | 1
CO[C@H]1CN(Cc2cccc3c(C)c(C)[nH]c23)CC[C@H]1N | 13 | 9
Cc1cc(C)n(-c2ccc(NC(=O)C3CCN(C(=O)C4CC45CCC5)CC3)cc2)n1 (stereo not given) | 9 | 9
CCN(CCO)c1nc(Nc2ccc(C)cc2)c2cnn(-c3ccccc3)c2n1 | 2 | -1
Nc1ccnc(CNS(=O)(=O)Cc2cccc(C(F)(F)F)c2)n1 | 1 | -2
CC(NC(=O)NCC1CCCC1)C(C)n1cncn1 (stereo not given) | -10 | -9
COc1cccc2cc(-c3csc(Nc4cccc(C(F)(F)F)c4)n3)c(=O)oc12 | -4 | -9
O=S(=O)(c1ccc(NC2C3CCCC2CN(C2CC2)C3)cc1)C(F)F (stereo not given) | -2 | -2

Another view of four compounds above:
Cc1cc(C)n(-c2ccc(NC(=O)C3CCN(C(=O)C4CC45CCC5)CC3)cc2)n1 (stereo not given)
  NPYLR7 agonist: 9
  NPYLR7 agonist max-min: 9
CCN(CCO)c1nc(Nc2ccc(C)cc2)c2cnn(-c3ccccc3)c2n1
  NPYLR7 agonist: 2
  NPYLR7 agonist max-min: -1
Nc1ccnc(CNS(=O)(=O)Cc2cccc(C(F)(F)F)c2)n1
  NPYLR7 agonist: 1
  NPYLR7 agonist max-min: -2
CC(NC(=O)NCC1CCCC1)C(C)n1cncn1 (stereo not given)
  NPYLR7 agonist: -10
  NPYLR7 agonist max-min: -9

Next section
SMILES | NPYLR7 agonist | NPYLR7 agonist max-min
COc1ccc(NC2=NC3(CCCC3)N=C(N)N2)cc1 | 18 | 14
Cc1cc(C)c2c(n1)OC(N1CCOCC1)(C(F)(F)F)CC2=O (stereo not given) | 29 | 23
Cc1cnc(C(=O)N2CCC3(CCCN(Cc4ccccc4F)C3=O)C2)[nH]1 (stereo not given) | -2 | -5
O=C(NCc1ccn[nH]1)N(Cc1ccccc1O)CC1CCCO1 (stereo not given) | 5 | 4
Cc1ccccc1-c1cn[nH]c1C1CCN(C(=O)c2c[nH]c(=O)[nH]2)CC1 | -6 | -6
N=C1c2ccccc2CN1c1ccc(N2Cc3ccccc3C2=N)c(Cl)c1 | 13 | 21
NC(=O)N/N=C\c1ccc([N+](=O)[O-])o1 | 10&-3 | -7&-8
CCCc1ccc(-c2cc(NC(=O)CNC(=O)C3CC3)n[nH]2)cc1 | 0 | -1
O=C(Cn1cc(C(F)(F)F)ccc1=O)N1C[C@@H]2[C@@H]3CC[C@@H](C3)[C@@H]2C1 | 7 | 2
CCc1oc(C(=O)NCCc2cc(=O)[nH]c(C)n2)cc1CN1CCCC1 | 1 | -5
COc1ccc(Cl)c2sc(N(Cc3cccnc3)C(=O)c3c(F)cccc3F)nc12 | 8 | 4
CCc1nn(CCCC(=O)NC(C)CC)c(=O)c2cc3occc3n12 (stereo not given) | 0 | 2
COCCN(CC(=O)N(CCc1c[nH]c2ccccc12)Cc1ccc(OC)c(OC)c1)C(=O)c1cccc(Br)c1 | 11 | 9
Cc1nn(C)c2ncc(C(=O)N3CCN(Cc4cc(=O)c(OCc5ccccc5Cl)co4)CC3)c(Cl)c12 | 0 | -3
COCCCNC(=O)C(C1CCCC1)N1CCN(C(=O)c2cccc(C)c2)CC1 (stereo not given) | -7 | 0
Cc1ccc(N=c2oc3ccc(Cl)cc3cc2C(N)=O)cc1 | 4 | -1
O=C(CNC(=O)c1ccc(F)cc1)N=Nc1c(O)n(CCc2ccccc2)c2ccccc12 | 0 | -7
CCOC(=O)C1(NC(=O)Cc2csc(C)n2)CCC1 | 5 | 4
Cc1nn(Cc2ccccc2)c(Cl)c1CN1CCNC(=O)C1 | -3 | -5
O=C(CSc1nc(=O)n(Cc2ccco2)c2c1CCCC2)Nc1ccccc1 | -5 | 1
CCc1c(C)c(C(=O)Nc2ccc(OC)cc2)n(Cc2cccc(C)c2)c1C | -3 | -1
O=C(C=c1[nH]c(=O)c(=Cc2ccccc2)s1)c1cccc(Cl)c1 | 22 | 21
CC(C)(C)c1ccc(N=Nc2c(O)[nH]c3ccc([N+](=O)[O-])cc23)cc1 | 14 | 6
FCOC(C(F)(F)F)C(F)(F)F | -16 | 0
CC1=[N+](C)c2ccc(N)cc2C1(C)C | 1 | 1
Cc1cc(C)cc(CSc2nnc(NC(=O)c3ccccc3C)s2)c1 | -4 | 1
Cc1cc2nc(CN3CCC(O)(CO)CC3)cc(=O)n2[nH]1 | 0 | -7
CN(CC(=O)Nc1ccc(Cl)cc1)C(=O)CSC1=NCCS1 | 11 | 3
C=CCN(C(=O)c1cc(C)c(C)s1)C(C)C | -6 | -7
CCOc1ccc(OCC)c(NS(=O)(=O)c2cnc[nH]2)c1 | 0 | 0

Record cards, from the list above.
CC(C)(C)c1ccc(N=Nc2c(O)[nH]c3ccc([N+](=O)[O-])cc23)cc1 is entered as NPYLR7 agonist = 14; NPYLR7 agonist max-min = 6
CCOc1ccc(OCC)c(NS(=O)(=O)c2cnc[nH]2)c1 is entered as NPYLR7 agonist = 0; NPYLR7 agonist max-min = 0
Cc1cc(C)cc(CSc2nnc(NC(=O)c3ccccc3C)s2)c1 is entered as NPYLR7 agonist = -4; NPYLR7 agonist max-min = 1

The results go on:
SMILES | NPYLR7 agonist | NPYLR7 agonist max-min
COc1ccc(C(=O)Nc2c(N)nc(SCc3cc(C)ccc3C)[nH]c2=O)cc1 | -5 | -1
Cc1ncsc1CCN(C)Cc1ccc(-n2ccnc2)cc1 | 6 | 0
O=S(=O)(/C=C/c1ccccc1)N1CCN(c2ccc3nnc(-c4ccco4)n3n2)CC1 | 4 | 8
CCOC(=O)N1CCN(C(=O)c2cc(-c3ccccc3)nn2-c2ccc(F)cc2)CC1 | -13 | -13
Cc1ccccc1-n1nnnc1SC(C)C(=O)NC(=O)NCC(C)C (stereo not given) | -8 | -11
COc1ccc(-c2ccc(=O)n(CCNS(=O)(=O)c3cc(C)c(C)cc3OC)n2)cc1 | -2 | -2
CCc1cccc(CC)c1NC(=O)CCn1cnc2sc3c(c2c1=O)CCCC3 | 1 | 2
O=C(NCCc1ccccc1)c1ccc(OC2CCN(C(=O)c3ccoc3)CC2)cc1 | 17 | 1
Cc1cnccc1CN(C)C(=O)c1ccccc1-c1ncc[nH]1 | 1 | 0
CCc1nc2c(OCc3ccc(Cl)cc3)cccn2c1N(C)C(=O)c1ccncc1 | -5 | -5
O=S(=O)(NCc1ccccc1)NCc1csc(N2CCCC2)n1 | 1 | 1
Cc1ccnc(-n2cccc2CN(C)Cc2nc(C)no2)c1 | -4 | -13
Cc1cc(C)nc(-n2nc(C)c3c2CC(c2cccs2)CC3=O)n1 (stereo not given) | 1 | 6
CCOC(=O)N1CCC(NC(=O)c2csc(Nc3ccc(OC(F)F)cc3)n2)CC1 | 11 | 2
Oc1cccc(CCC2CCCCN2Cc2nc(-c3ccccc3)no2)c1 (stereo not given) | -7 | -5
CCC(C)C(NC(=O)Nc1ccc(F)c(F)c1)C(=O)Nc1nnc(-c2cccc(OC)c2)s1 (stereo not given) | -3 | 3
Cc1ccc(-n2c(C)nn(CN3CCN(c4cccc(C)c4)CC3)c2=S)cc1 | 3 | 1
Cc1nc2ccc(Cl)cn2c(=O)c1NC(=O)c1ccc(Br)o1 | 4 | 2
CC1NC(=S)N2C(C)NC(=S)N12 (stereo not given) | -3 | -7
O=C(Cc1ccccn1)NCc1nc(Cc2cccs2)no1 | 2 | 0
COc1cccc(Nc2nc(C(N)Cc3ccc(Cl)cc3)cs2)n1 (stereo not given) | -6 | -11
Cc1cccc(COC(CN2CCN(C(=O)c3cccs3)CC2)c2ccc(Cl)cc2)c1 (stereo not given) | 3 | 1
CC(=O)Oc1cccc(C(=O)Nc2nccs2)c1 | -6 | -9
O=c1nc(SCc2cccc3ccccc23)c2c(n1Cc1ccncc1)CCC2 | -1 | -2
Cc1cc(C)n(Cc2ccc(C(=O)NCCc3ccccn3)cc2)n1 | 6 | 3
CCC(c1ccc(F)cc1)S(=O)(=O)Cc1nnc(C)o1 (stereo not given) | 4 | 1
COc1ccccc1CN1C[C@@H](C(=O)O)C[C@@H](C(=O)NCc2cccnc2)C1 | 1 | 0
COc1ccc(C2NC(=O)NC(C)=C2C(=O)Nc2ccccc2C)cc1OC (stereo not given) | -13 | -20
Cc1[nH]n(-c2cccc(C(F)(F)F)c2)c(=O)c1N=Nc1ccc(Br)cc1 | -4 | -11
CCC(C)C(=O)Nc1ccc(Cl)c(S(=O)(=O)N2CCOCC2)c1 (stereo not given) | 8 | 4
Cc1nc(C)c(Cc2cccc(Cl)c2)c(N2CCN(C(=O)C3CCC3)CC2)n1 | 0 | 4
CCc1c(C)nc(-c2cccc(C)c2)nc1N1CCN(C(=O)c2cccs2)CC1 | 4 | 6
CS(=O)(=O)Nc1ccc(F)cc1C(=O)Nc1cccc(C2SCCS2)c1 | 2 | 1
O=CN1N=C(c2ccccc2)CC1c1ccccc1[N+](=O)[O-] (stereo not given) | -6 | -10
Cc1cc2oc(NC(=O)c3ccc(=O)n(C)c3)nc2c(C)c1Cl | 8&-1 | 2&-4
Cc1ccc(C(F)(F)C(F)(F)c2ccccc2C#N)cc1 | 5 | 3
Cc1ccc(S(=O)(=O)N(Cc2nccn2Cc2ccc(Cl)c(Cl)c2)CC2CCCO2)cc1 (stereo not given) | 5 | 15
COC(=O)Nc1ccc(SC(F)(F)C(F)(F)C(F)(F)F)cc1 | 1 | 1
O=C(CSc1nnc(NC2CC2)s1)N1CCCC1 | 2 | 1
CCOCCCC(=O)N(C)C1CCN(c2ccc(Cl)cc2)CC1 | 11 | 10
CN1CCCC(NC(=O)CCCc2ccc3c(c2)-c2ccccc2C3)C1 (stereo not given) | -3 | -3
Cc1ccc(S(=O)(=O)NCCOc2ccc(-c3ccc(F)cc3)nn2)cc1C | -9 | -9
Cc1ccc2nc(C)cc(C(=O)NCc3cccnc3N3CCOCC3)c2c1 | 1 | 0
CNC(=O)c1cccc(Oc2nc(C3CC3)nc3sc4c(c23)CCCC4)c1 | -3 | -4
O=C(c1ccc([N+](=O)[O-])o1)N1CCC(c2cn(Cc3ccc(C(F)(F)F)cc3)c3ccccc23)CC1 | 23 | 11
